V. cholerae QS = Vibrio cholerae quorum sensing activators, luminescence (AID 686977) | V. cholerae quorum sensing reporter, luminescence, 6 h; higher luminescence means a stronger effect; most inactives read 0 | one-dose luminescence at 50 µM unless noted; EC50 in µM for titrated hits | 9,400 tested, under 10 active;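 active = light above mean plus 3 SD and confirmed in a dose series; inconclusive = above that limit without a clear retest; inactive = below it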;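 also: raw light counts without normalisation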
Starred values were filed as active, the others as inactive; ? = inconclusive; [ ] = dose if it differs, or a comment.

The first 2 compounds as a preview:
item	Molecule	V. cholerae QS
1	CCOC(=O)N1CCN(C(=O)C2CCN(Cc3nc(-c4ccccc4C)oc3C)CC2)CC1	0
2	Cc1occc1C(=O)Nc1ccc(Br)cc1F	?

Results (from the top)
item	Molecule	V. cholerae QS
1	CCOC(=O)N1CCN(C(=O)C2CCN(Cc3nc(-c4ccccc4C)oc3C)CC2)CC1	0
2	Cc1occc1C(=O)Nc1ccc(Br)cc1F	?
3	CCCc1nn(-c2cc(Cl)ccc2OC)c2c1C(=O)CC(C)(C)C2	0
4	CCOc1ccc(N(CC(=O)Nc2ccccc2C(=O)NCc2ccco2)S(C)(=O)=O)cc1	0
5	COc1cccc(-n2c(SCC(=O)NCc3ccco3)nnc2-c2c[nH]c3ccccc23)c1	0
6	Cc1cccc(C)c1OCC(=O)OCC(=O)c1ccc2c(c1)NC(=O)CO2	0
7	COc1ccc(OC)c(NS(=O)(=O)c2ccc(N3CCCC3=O)cc2)c1	0
8	O=C1N=C(N2CCC(Cc3ccccc3)CC2)S/C1=C/c1cn[nH]c1-c1ccccc1	40
9	Cc1ccc(-n2c(=O)[nH]cc(C(=O)N3CCc4ccccc43)c2=O)cc1C	40
10	O=c1oc2ccccc2cc1NCc1ccccc1O	280
11	CN1CCN(C2=Nc3cc(Cl)ccc3Nc3ccccc32)CC1	200[10 µg/mL]
12	Cc1ccc(N2CC(c3nc4ccccc4[nH]3)CC2=O)c(C)c1 (stereo unspecified)	0
13	Cc1ccc(CNC(=O)C2CCCN(S(=O)(=O)c3cnc[nH]3)C2)cc1 (stereo unspecified)	40
14	CCCC(=O)NC(Nc1ccc(S(=O)(=O)Nc2cc(C)on2)cc1)(C(=O)OCC)C(F)(F)F (stereo unspecified)	0
15	Cc1cc(=S)cc(C)n1CCCO	40
16	CCC(CC)C(=O)Nc1ccccc1NC(C)=O	40
17	COc1ccccc1NC(=O)CSc1ccc2nnc(-c3cccnc3)n2n1	0
18	O=C(NCCc1c[nH]c2ccccc12)Nc1ccccc1	40
19	O=C(Cc1ccc(Br)cc1)N1CCCCCC1	0
20	CCOCCc1nnc(NC(=O)COC)s1	0
21	CCOc1ccccc1/C=c1\sc2nc(-c3ccco3)nn2c1=O	0
22	O=C(c1ccc2c(=O)n(-c3ccccc3)c(=O)[nH]c2c1)N1CCN(c2ccc(F)cc2)CC1	0
23	CC(C)OC(=O)c1nnc(Cc2ccc(F)cc2)o1	0
24	CN1CCN(c2ccc(N)c(N3CCN(C)CC3)c2)CC1	40
25	Cc1noc(C)c1C(=O)N1CCCC1	0
26	Cn1c(Cc2c[nH]c3ccccc23)n[nH]c1=S	40
27	N#Cc1nc(COc2ccccc2)oc1N1CCOCC1	0
28	COc1cccc(-n2c(SCC(=O)N3CCOCC3)nnc2-c2c[nH]c3ccccc23)c1	0
29	Cc1cc(C)nc(NC(=O)CSc2nc3cc(Cl)ccc3s2)n1	0
30	O=C(CSc1nnc(-c2c[nH]c3ccccc23)o1)N1c2ccccc2CCc2ccccc21	0

The closing 3 compounds of the section above are carried over, then new ones follow:
item	Molecule	V. cholerae QS
28	COc1cccc(-n2c(SCC(=O)N3CCOCC3)nnc2-c2c[nH]c3ccccc23)c1	0
29	Cc1cc(C)nc(NC(=O)CSc2nc3cc(Cl)ccc3s2)n1	0
30	O=C(CSc1nnc(-c2c[nH]c3ccccc23)o1)N1c2ccccc2CCc2ccccc21	0
31	Cc1nc2ccc(NC(=O)c3ccc(Cl)s3)cc2s1	0
32	Cc1ccc(S(=O)(=O)N2CCC(C(=O)N3Cc4ccccc4C3)CC2)cc1	0
33	CC(C)N(C(=O)CSc1nnc(NC(=O)C2CCC2)s1)C(C)C	40
34	CCOC(=O)C1=C(C)NC(C)=C(C(=O)OCC)C1C(=O)OCC(=O)N1CCC(C)CC1	0
35	COc1cccc(-n2c(COc3ccc(C)cc3)nnc2SCC(=O)O)c1	0
36	CCOc1ccccc1N=c1oc2cc(O)ccc2cc1C(=O)NCC1CCCO1 (stereo unspecified)	0
37	Cc1ccc2[nH]c(=O)c3cc(C(=O)NCCN4CCN(C)CC4)sc3c2c1	0
38	CCOc1ccc(Cn2nnc(C(=O)NCCc3ccccc3)c2N)cc1	0
39	COC(=O)c1ccc(C2c3c(oc4ccccc4c3=O)C(=O)N2CCCN2CCOCC2)cc1 (stereo unspecified)	40
40	Cn1c(CCNC(=O)c2ccc(F)cc2)nc2ccccc21	0
41	O=C(Nc1nnc(N2CCCCCC2)s1)c1cc(-c2ccc(Br)cc2)on1	0
42	COc1ccc(NC(=O)CC2Oc3ccc(C)cc3NC2=O)cc1 (stereo unspecified)	0
43	C[C@H]1C[C@H]2[C@@H]3CCC4=CC(=O)C=C[C@]4(C)[C@@]3(F)[C@@H](O)C[C@]2(C)[C@@]1(O)C(=O)CO	0[10 µg/mL]
44	CC1CCc2sc(C(=O)NCc3ccc(F)cc3)cc2C1 (stereo unspecified)	0
45	Cc1nnc(SCC2=C(C(=O)O)N3C(=O)[C@@H](NC(=O)Cn4cnnn4)[C@H]3SC2)s1	0[10 µg/mL]
46	CCCCN(CCCC)S(=O)(=O)c1ccc(NC(=O)Cc2cccs2)cc1	40
47	O=C(Nc1cccc(Cl)c1N1CCCC1)c1cccc(-c2cc3ccccc3oc2=O)c1	0
48	C=C1CC[C@H](O)C/C1=C/C=C1\CCC[C@]2(C)[C@@H]([C@H](C)/C=C/[C@H](C)C(C)C)CC[C@@H]12	?
49	CSCCC1NC(=O)NC1=O (stereo unspecified)	40
50	COC(=O)c1nc(NC(=O)C(C)(C)C)n[nH]1	40
51	CC(=O)Nc1ccc(NC(=O)c2sc3nc4c(c(-c5ccc(C)cc5)c3c2N)CCC4)cc1	0
52	CSc1ccc(C2C(C#N)=C(N)Oc3c2ccc(=O)c2c(C)oc(C)c32)cc1 (stereo unspecified)	0
53	Cc1ccc(-c2noc(CSc3nnnn3C3CCCCC3)n2)cc1	0
54	CCOC(=O)CCc1c(C)c(C#N)c2nc3ccccc3n2c1-n1cnc2ccccc21	40
55	Cc1ccc2c(c1)N=C(c1ccc(Cl)cc1)CO2	0
56	O=C(CSc1nccn1-c1ccc(Cl)cc1)NCc1ccc2c(c1)OCO2	40
57	CC(=O)N(C)c1ccc(OCC(O)COc2ccc(N(C)C(C)=O)cc2)cc1	0
58	Cn1c(=O)c2cc(S(=O)(=O)NC(C(=O)Nc3cccnc3)c3ccccc3)ccc2n(C)c1=O (stereo unspecified)	40
59	COc1ccc(OC)c(C(O)CNC(=O)CN)c1 (stereo unspecified)	0[10 µg/mL]
60	CC(CCc1ccccc1)NC(=O)CN1CCN(Cc2ccc(Cl)cc2)C1=O (stereo unspecified)	0

Overlap with the part before: seven compounds; new compounds follow.
item	Molecule	V. cholerae QS
54	CCOC(=O)CCc1c(C)c(C#N)c2nc3ccccc3n2c1-n1cnc2ccccc21	40
55	Cc1ccc2c(c1)N=C(c1ccc(Cl)cc1)CO2	0
56	O=C(CSc1nccn1-c1ccc(Cl)cc1)NCc1ccc2c(c1)OCO2	40
57	CC(=O)N(C)c1ccc(OCC(O)COc2ccc(N(C)C(C)=O)cc2)cc1	0
58	Cn1c(=O)c2cc(S(=O)(=O)NC(C(=O)Nc3cccnc3)c3ccccc3)ccc2n(C)c1=O (stereo unspecified)	40
59	COc1ccc(OC)c(C(O)CNC(=O)CN)c1 (stereo unspecified)	0[10 µg/mL]
60	CC(CCc1ccccc1)NC(=O)CN1CCN(Cc2ccc(Cl)cc2)C1=O (stereo unspecified)	0
61	CC(C)NC[C@@H](O)COc1ccc(CC(N)=O)cc1	0[10 µg/mL]
62	Cc1ccccc1-n1nc2c(c1NC(=O)c1cccc(F)c1)CS(=O)C2 (stereo unspecified)	40
63	CCN(CCCNS(=O)(=O)c1ccc2c(c1)CCN2C(C)=O)c1cccc(C)c1	0
64	O=C(Nc1ccc(Cl)cc1)[C@@H]1[C@@H]2C(=O)N(c3ccc4ccccc4c3)C(=O)[C@@H]2[C@H]2C=CC=NN21	0
65	CC(=O)Nc1nnc(S(N)(=O)=O)s1	0[10 µg/mL]
66	CCCc1cc(=O)[nH]c(=S)[nH]1	0[10 µg/mL]
67	C=CCc1c(C)nc(C)nc1N/N=C/c1ccccc1	40
68	CC(C)NCC(O)COc1cccc2[nH]ccc12 (stereo unspecified)	760[10 µg/mL]
69	Cc1ccc(CSc2nc3ccncc3[nH]2)cc1	0
70	COc1nc(OC)nc(N2CCC(C(=O)Nc3cccc4c3CCCC4)CC2)n1	0
71	COCCNP(=O)(c1ccccc1)c1nc2ccccc2s1 (stereo unspecified)	0
72	N#CC(=C1N=c2ccccc2=N1)c1c(O)[nH]c2ccccc12	0
73	CCOC(=O)Cn1c(S(=O)(=O)Cc2ccccc2)nc2ccccc21	40
74	COc1ccccc1-c1c(C)oc2cc(OC(=O)c3ccco3)ccc2c1=O	0
75	COc1ccc(S(=O)(=O)N2CCN(c3ccc(C)cc3C)CC2)cc1OC	0
76	O=C(Nc1cccc(C(F)(F)F)c1)c1ccc2nc(-c3ccco3)c(-c3ccco3)nc2c1	0
77	O=C(Cn1c(SCC(=O)NC2CCCC2)nnc1-c1ccncc1)Nc1ccc2c(c1)OCO2	40
78	CC(=O)O[C@H]1CC[C@@]2(C)C(=CC[C@@H]3[C@@H]2CC[C@]2(C)C(=O)CC[C@@H]32)C1	0[10 µg/mL]
79	Cc1ccccc1NC(=S)NCCc1ccccn1	160
80	CCOC(=O)N1CCN(c2cc(=O)n(-c3ccccc3Cl)c(=O)[nH]2)CC1	0
81	CCOc1ccc(NC(=O)CS(=O)(=O)c2cn(CC)c3ccccc23)cc1	0
82	COc1ccc(/C=C/C(=O)Nc2sc3c(c2C(=O)NCc2cccnc2)CCCC3)cc1	0
83	CCC(c1nnnn1C1CCCC1)N(Cc1cccs1)Cc1cc2cc(C)ccc2[nH]c1=O (stereo unspecified)	0
84	CC(NC(C)(C)C)C(=O)c1cccc(Cl)c1 (stereo unspecified)	40[10 µg/mL]
85	CSc1cccc(NC(=O)C(C)NS(=O)(=O)c2ccc(F)cc2)c1 (stereo unspecified)	0
86	O=C(C1CC1)N1CCN=C1SCc1ccc(F)cc1	0
87	COCc1c(CN)cnc(C)c1N	40
88	Cc1cc(NC(=O)CN2CCCCCCC2)no1	0
89	CN(Cc1ccccc1)C1CC(=O)N(c2ccc(C(=O)O)cc2)C1=O (stereo unspecified)	0
90	S=c1[nH]nc(-c2ccncc2)n1Cc1ccccc1	0
91	COc1ccc(C(=O)NCCN2CCCC2)cc1OC	0
92	Cc1ccc(C(=O)C2CN3CCC2CC3)cc1 (stereo unspecified)	0
93	Cn1c(=O)c2c(nc(SCC(=O)NCC3CCCO3)n2C)n(C)c1=O (stereo unspecified)	0
94	O=C(CSc1nnc(-c2ccccc2)o1)Nc1ccccc1F	40
95	Cc1occc1-c1nnc(SCC(N)=O)n1Cc1ccccc1	0
96	CC(=O)Nc1nnc(SCC(=O)NC(C)(C)C)s1	40
97	COc1ccc(C[C@H]2NC[C@H](O)[C@H]2OC(C)=O)cc1	40[10 µg/mL]
98	O=C1C2C3C=CC(C3)C2C(=O)N1/N=C/c1cn(Cc2ccccc2)c2ccccc12 (stereo unspecified)	0
99	Cc1ccccc1CS(=O)(=O)Cc1ccc(C(=O)N2CCOCC2)o1	0
100	CC(=O)N1CCc2cc(C(=O)CN3CCN(c4cccc(Cl)c4)CC3)ccc21	40
101	CCOc1ccc(C(C)=O)cc1Cn1nc(C(=O)O)c2ccccc2c1=O	0
102	CC(C(=O)O)c1cccc(C(=O)c2ccccc2)c1 (stereo unspecified)	0[10 µg/mL]
103	O=C(NCCC1=CCCCC1)C1CCN(c2nnc(-n3cccc3)s2)CC1	160
104	CC(OC(=O)c1cc[n+]([O-])cc1)C(=O)Nc1ccc(Cl)cn1 (stereo unspecified)	0
105	COc1ccccc1C(=O)N(Cc1nc(-c2ccc(Cl)cc2)no1)C(C)C	0
106	CCOC(=O)c1c(C)oc(/N=C/c2ccccc2O)c1C#N	0
107	Cc1ccc2c(c1)C(c1ccccc1)N(C(=O)C(C)C)CC(=O)N2 (stereo unspecified)	40
108	C=CC[N@@+]12CC[C@]34c5ccccc5N5/C=C6\C7N(/C=C(\C53)[C@@H](C[C@@H]41)/C(=C/CO)C2)c1ccccc1[C@@]71CC[N@@+]2(CC=C)C/C(=C\CO)[C@@H]6C[C@@H]12 (stereo partly specified)	40[10 µg/mL]
109	Clc1ccc(-c2cn3cccnc3n2)cc1Cl	40
110	CN(C)c1nc(N)nc(/C(C#N)=C/C2CC3C=CC2C3)n1 (stereo unspecified)	0

A second format for some results above:
[102] CC(C(=O)O)c1cccc(C(=O)c2ccccc2)c1 (stereo unspecified)
  V. cholerae QS = 0[10 µg/mL]

[103] O=C(NCCC1=CCCCC1)C1CCN(c2nnc(-n3cccc3)s2)CC1
  V. cholerae QS = 160

[104] CC(OC(=O)c1cc[n+]([O-])cc1)C(=O)Nc1ccc(Cl)cn1 (stereo unspecified)
  V. cholerae QS = 0

Bioassay records from PubChem BioAssay.

A portion of the library (hit frequency here may not be typical).
